# Source: PubChem (several laboratories)
# rRNA inh HTS = inhibitors of bacterial rRNA selective over humanized ribosomes; E. coli WT GFP vs humanized-ribosome RFP mutants, fluorescence, 24 h; hits give low values; DMSO median 0, no signal -100; GFP signal change (wild-type ribosome), % (concentration not given with the values); 1.6% of 350,000 active;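 active = significant combined selectivity score with lowered wild-type GFP, culture density cut under 30%, mutant RFP and density less affected; inactive = any of these conditions unmet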; also: one replicate is shown; some compounds called inactive have numbers as strong as hits
# MLL AF4-AF9 inh = inhibitors of human MLL-AF4/AF9 interaction; P42568; AlphaScreen, biotin-AF4 peptide binding to FLAG-AF9; inhibition, % at 10 µM; 0.47% of 350,000 active; AID 651704;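 active = every replicate reaching a set inhibition limit, whatever the replicate mean, cut at about 25% in these data; inconclusive = mean inhibition reaches that limit but some replicates miss it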;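 also: 0% = plate neutral control median and 100% = total signal loss; the record names both 10 and 1 µM as test concentration; the first replicate is given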
# Target sequence (P42568 whole entry, looked up): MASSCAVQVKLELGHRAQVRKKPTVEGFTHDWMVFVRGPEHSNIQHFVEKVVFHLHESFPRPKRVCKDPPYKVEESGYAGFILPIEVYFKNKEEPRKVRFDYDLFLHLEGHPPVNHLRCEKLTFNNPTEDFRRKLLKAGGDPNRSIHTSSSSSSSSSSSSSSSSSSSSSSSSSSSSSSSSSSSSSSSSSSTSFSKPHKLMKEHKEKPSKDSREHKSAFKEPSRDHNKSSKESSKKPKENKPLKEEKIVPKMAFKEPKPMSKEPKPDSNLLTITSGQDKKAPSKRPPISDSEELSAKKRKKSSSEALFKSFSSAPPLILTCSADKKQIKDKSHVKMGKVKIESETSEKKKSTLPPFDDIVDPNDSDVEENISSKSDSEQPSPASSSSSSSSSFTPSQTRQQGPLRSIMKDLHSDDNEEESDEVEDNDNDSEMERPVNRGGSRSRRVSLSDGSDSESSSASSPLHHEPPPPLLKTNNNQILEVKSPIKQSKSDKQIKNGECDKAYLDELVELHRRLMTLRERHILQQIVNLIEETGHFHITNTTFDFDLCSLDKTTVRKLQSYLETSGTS
# Beta cell apopt = beta cell apoptosis inhibition; INS-1E cytokine-induced death, ATP luminescence, 48 h; percent of positive-control rescue, neutral wells zero; protection from apoptosis, % (test concentration not listed); 0.8% of 300,000 active;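 active = all replicates at 75% or more, or half of them and the mean; inconclusive = half reach 75% but not the mean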;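 also: 0% = cytokine-treated negative control wells and 100% = positive control rescue; higher means more ATP so stronger rescue from cytokine killing; wells of about 40 µL received 100 nL stock; the first replicate is given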
# Vif A3G = HIV-1 Vif–A3G interaction blockers – biochemical, TR-FRET, GST-Vif 1-94, biotin-A3G peptide, dose response retest, primary screen (AID 1117319). TR-FRET GST-Vif / biotin-A3G peptide binding; higher % means a stronger effect; test concentration not given here; strong numbers were not always called active. one-dose inhibition, %; IC50 in µM for titrated hits. 0.57% of 260,000 active;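 active = above the screen mean plus three standard deviations and confirmed in dose response; inconclusive = results disagree or hit not tested in dose response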;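 also: Vif residues 1-94 fused to GST binding biotinylated APOBEC3G peptide 110-148; 0% = full assay without inhibitor and 100% = GST in place of GST-Vif; retest series ran down from 100 µM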
# Calb FLC = affects C. albicans growth with fluconazole. C. albicans CaCi-2 (fluconazole-resistant clinical isolate) + fluconazole, Alamar Blue growth, 48 h. growth inhibition, % (test concentration not listed). AID 1979. 0.57% of 300,000 active;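 active = most replicates above 75%; inconclusive = exactly half above 75%; inactive = most below 75%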;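 also: all wells also contain fluconazole at 8 µg/ml as a sub-toxic cotreatment; 0% = median of DMSO wells and 100% = median of geldanamycin control wells; wells of about 8 µL received 7.5 nL stock; the first replicate is given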
# T cruzi inh = T. cruzi replication inhibition; T. cruzi beta-gal in NIH3T3, luminescence, 90 h; inhibition, % (no concentration beside the values); 1.4% of 300,000 active;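 active = mean inhibition across valid replicates above about 55%, limit read from the data; inconclusive = mean below that limit but half or more replicates reach it; inactive = mean below it, under half of replicates reach it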;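 also: signal also drops with host cell toxicity which is not excluded here; 0% = plate median of DMSO wells and 100% = zero luminescence signal; higher percent means less beta-gal luminescence so fewer parasites; stock transfer was 50 nL into about 50 µL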
# RanGTP-Imp inh = inhibitors of RanGTP-importin-beta interaction, primary screen, biochemical, FRET, CFP-Ran, YFP-importin-beta, homogeneous. inhibition, % (no concentration beside the values). cell-free CFP-Ran/YFP-importin-beta FRET ratio. AID 2216. 1.1% of 300,000 active;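 active = most replicates above 15%; inconclusive = exactly half above 15%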;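 also: 0% = DMSO wells and 100% = Ran loaded with GDP instead of GTP; wells of about 40 µL received 100 nL stock; the first replicate is given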
# A1 inh = inhibitors of the anti-apoptotic protein A1, read as caspase activation; MEF A1-2A-BIM cells, Caspase-Glo 3/7 luminescence, 3 h; percent of clofoctol response, vehicle zero; caspase activation, % (no concentration beside the values); 0.066% of 330,000 active; AID 2462;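 active = over half of replicate activation scores above 10%, or exactly half above 10 with the replicate mean above 10; inconclusive = replicate mean below 10 yet half the replicates above 10; inactive = over half of replicates below 10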;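 also: wells of about 30 µL received 50 nL stock; many hits fall short of the cut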
# rRNA inh HTS OD600 = further read-out of rRNA inh HTS, marked with its call; OD600 change, %; measured here: OD600 growth;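 optical density of the mix in the first replicate; 0 = DMSO median and -100 = no signal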
# rRNA inh HTS RFP = also measured in rRNA inh HTS; calls as there; RFP signal change, %; measured here: RFP humanized mutant strains;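 first replicate; 0 = DMSO median and -100 = no signal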
# Active calls of the source: *; u = inconclusive; x = no result given.
SMILES,rRNA inh HTS,rRNA inh HTS OD600,rRNA inh HTS RFP,MLL AF4-AF9 inh,Beta cell apopt,Vif A3G,Calb FLC,T cruzi inh,RanGTP-Imp inh,A1 inh
S=C(c1ccc(N2CCCC2)c(Br)c1)N1CCCCC1,3,14,1.6,6.6,-1,-1%,-7,11,-2.0,0.7
COc1ccc(-c2csc3ncnc(N4CCN(c5ccccc5O)CC4)c23)cc1,x,x,x,x,5,x,-23,-6,3.5,0.2
COc1ccc(Cc2nc3ccccc3n2CC(=O)N/N=C/c2ccccc2)cc1OC,-1,-14,5.6,3.3,3,11%,-2,0,0.1,0.8
CN1CCCN(C(=O)C2CCC(C(=O)N3CCCN(C)CC3)CC2)CC1 (stereo unspecified),13,2,-0.2,0.8,1,4%,0,-6,6.6,0.2
Cn1c(=O)[nH]c(=O)c2c1nc(SCC(N)=O)n2Cc1cccc(Br)c1,-2,0,-1.6,-4.6,-8,-1%,x,1,u,-0.2
O=C(c1ccc2c(=O)n3c(nc2c1)CCCCC3)N1CCN(C(c2ccccc2)c2ccccc2)CC1,x,x,x,x,8,-1%,25,33,-0.9,0.1
O=C(COc1ccccc1)N=C1SC2CS(=O)(=O)CC2N1c1ccc(F)cc1 (stereo unspecified),8,10,-1.5,-2.6,-2,x,36,-5,-2.8,-1.2
O=C(CCSCc1ccc(Cl)cc1)NCc1cccs1,20,8,1.3,2.7,0,-5%,-12,-8,2.1,-0.7
COc1cc(OC)cc(C(=O)Nc2cc(C)nn2-c2ccccc2)c1,-4,-1,0.5,-8.4,-3,x,-1,-2,5.8,-0.3
CC(=O)Oc1ccc(OC(C)=O)c(SCCCCCN2CCOCC2)c1,-1,5,0.6,4.0,-10,7%,20,-8,u,0.2
COc1cc2c(c(OC)c1OC)C(=O)CC2,13,12,0.8,2.0,x,-5%,1,-27,0.8,-0.4
C=CCOc1ccc(/C(O)=C2/C(=O)C(=O)N(CCN3CCOCC3)C2c2ccc(C)cc2)cc1 (stereo unspecified),x,x,x,x,4,3%,-4,-2,-0.9,0.4
Cc1ccc(NC(=O)c2ccc(S(=O)(=O)NCc3ccco3)cc2)nc1,9,5,-0.6,1.0,-19,-6%,4,-3,1.9,-0.3
Cc1ccc(NC(=O)N(CCC(=O)O)Cc2ccccc2)cc1,7,-10,-3.5,-1.0,-4,u,1,5,-3.6,-0.5
Cc1[nH]nc(SCC(=O)NCC(C)C)c1[N+](=O)[O-],1,7,0.3,-4.6,-6,-3%,-3,-15,3.2,0.2
Cc1c(C=O)c(C=O)c(C)n1Cc1ccccc1,-3,-9,9.6,x,x,70%,7,-19,-5.7,9.3*
CCOc1ccc(NC(=O)CSc2nc3ccccc3c(=O)n2CCCC(=O)N2CCCC2)cc1,x,x,x,x,-4,-2%,-6,13,0.8,0.2
CCN(CC)CCCn1c2c(c(SCC(=O)Nc3cc(C)on3)nc1=O)CCC2,17,11,5.0,7.6,x,x,-5,-1,2.7,1.4
CC(C)(C)c1nc(SCC(=O)Nc2ccc(N3CCOCC3)cc2)c2ccccc2n1,x,x,x,x,-11,8%,4,40,u,0.8
COCCNC(=O)c1ccc(CSCc2cccc(Cl)c2)o1,-4,-16,-0.3,1.0,-12,-11%,1,-5,-2.8,0.4
CCC(C)NC(=O)CN1C(=O)CC(C)(C)S(=O)(=O)c2ccccc21 (stereo unspecified),9,6,-1.6,-3.5,-8,3%,2,3,u,1.4
Cc1cnc(CN(C)Cc2nc(Cc3cccc(C(F)(F)F)c3)no2)[nH]1,-11,-5,3.5,-5.6,-1,x,-1,13,4.9,0.5
CCc1cccc(NC(=O)C2CCN(S(=O)(=O)c3ccc4c(c3)CC(C)N4C(C)=O)CC2)c1 (stereo unspecified),-11,-5,0.9,1.5,13,x,-6,45,0.0,0.4
CC(C)(C)N(Cc1ccccc1)C(=O)CCc1ccccc1,-34,-50,-2.8,0.9,2,x,-37,25,2.9,0.2
Cc1cc(C)cc(NC(=O)c2cccc(NC(=O)C3C4CC5OC(=O)C3C5C4)c2)c1 (stereo unspecified),-21*,-14*,6.0*,-20,-5,5%,-6,0,-2.9,0.2
CSCC(C)N1CCC(n2nccc2NC(=O)CCc2ccccc2)CC1 (stereo unspecified),15,14,1.9,-2.4,x,x,-1,32,13,x
Cc1ccc(S(=O)(=O)Nc2cc(S(=O)(=O)N3CCCCC3)ccc2N2CCOCC2)cc1,10,-4,1.7,-1.6,3,x,-1,10,5.2,-0.4
Cc1ccc(S(=O)(=O)N2CCOCC2)cc1NC(=O)c1cc2ccccc2oc1=O,x,x,x,-3.1,-5,5%,x,x,x,0.3
O/N=C1\CCCc2c1nc(-c1ccccc1F)n2O,15,17,0.6,-1.2,0,-3%,-8,-3,1.1,-0.2
COc1ccc(Cl)cc1S(=O)(=O)N(C)CC(=O)NCc1ccc2c(c1)OCO2,-7,-5,-4.5,0.7,-2,x,-1,5,1.2,2.5

# Single records, as listed above. Values in the order: rRNA inh HTS, rRNA inh HTS OD600, rRNA inh HTS RFP, MLL AF4-AF9 inh, Beta cell apopt, Vif A3G, Calb FLC, T cruzi inh, RanGTP-Imp inh, A1 inh
# Profile of Cc1c(C=O)c(C=O)c(C)n1Cc1ccccc1 → -3, -9, 9.6, x, x, 70%, 7, -19, -5.7, 9.3*
# Profile of CC(C)(C)c1nc(SCC(=O)Nc2ccc(N3CCOCC3)cc2)c2ccccc2n1 → x, x, x, x, -11, 8%, 4, 40, u, 0.8

# (more compounds)
SMILES,rRNA inh HTS,rRNA inh HTS OD600,rRNA inh HTS RFP,MLL AF4-AF9 inh,Beta cell apopt,Vif A3G,Calb FLC,T cruzi inh,RanGTP-Imp inh,A1 inh
O=C(COc1ccc(F)cc1)N(c1ccccn1)C1CCCCC1,x,x,x,x,-6,x,-6,-15,u,0.2
COc1ccc([C@H]2CC(=O)C=C(c3cccc(Cl)c3)C2)cc1,-16,-25,-22,-0.1,2,x,x,x,x,-1.3
CCOc1ccc(CCNC(=O)C2CCN(S(=O)(=O)N3CCOCC3)CC2)cc1OCC,x,x,x,x,-3,23%,0,2,-0.1,-0.1
COC(=O)N/N=C(\C)c1ccc(Br)cc1,x,x,x,x,-1,30%,-3,-38,0.8,-3.9
COc1ccc(CCC(=O)Nc2nccs2)cc1OC,6,5,-1.5,-0.9,-2,-11%,-9,-17,2.1,-0.5
Cc1ccc(Cl)cc1NC(=O)Cn1c(C)csc1=O,2,1,-2.1,-2.0,-1,7%,x,x,x,1.0
C=C(C)CNC(=S)NNC(=O)CCn1c2ccccc2c2ccccc21,x,x,x,x,-3,x,7,-13,4.8,-0.1
Oc1ccc(-c2csc(-c3c[nH]c4ccccc34)n2)c(O)c1,x,x,x,x,x,5%,-30,-1,1.0,0.0
Cn1c(SCc2nc3ccccc3s2)nnc1-c1cccs1,x,x,x,x,-9,11%,0,x,0.0,u
CCOC(=O)C(NC(=O)Nc1ccc(F)cc1F)(Oc1ccccc1)C(F)(F)F (stereo unspecified),x,x,x,x,-2,-4%,21,-15,1.0,0.6
Cn1c(=O)[nH]c(=O)c2c1nc(NC1CCCCC1)n2CCO,0,5,-2.7,-2.4,2,x,-4,-10,-2.1,0.0
CCNC(=O)NCCc1c[nH]c2ccc(Cl)cc12,x,x,x,x,2,-1%,-2,-11,-1.7,0.7
N#Cc1c(N)nc2c3c(sc(=N)c2c1N)NC(=O)CC3c1ccccc1 (stereo unspecified),x,x,x,x,17,-67%,11,-1,119*,-0.3
COc1ccccc1NC(=O)COC(=O)C1CC(=O)N(c2ccc3c(c2)OCCO3)C1 (stereo unspecified),-10,-15,2.1,-2.1,-4,x,x,x,x,0.1
CCc1ccc(C(=O)NCc2cccs2)s1,x,x,x,x,-5,24%,-2,-6,0.7,-1.4
COc1cc(/C=N/NC(=O)CCn2nc(C)cc2C)ccc1O,-12,4,8.8,3.1,7,-5%,7,-5,0.2,1.7
COc1cc(NC(=O)c2ccc(N3CC4CC(C3)c3cccc(=O)n3C4)c(NC(=O)c3ccncc3)c2)cc(OC)c1OC (stereo unspecified),-5,-1,-3.2,0.0,1,x,1,39,-2.1,-0.3
CCc1nnc(NC(=O)CSc2nnc(-c3ccoc3C)n2-c2ccc(C)cc2)s1,x,x,x,x,-1,u,-5,-1,-3.1,1.2
COc1ccc(Cc2nnc(Nc3ccccc3OC)[nH]c2=O)cc1,13,12,0.5,0.1,-5,-9%,-5,9,-11,-0.3
O=C(CSc1n[nH]c(=O)n1C1CC1)NCc1ccccc1Cl,7,19,-2.1,-3.9,-2,-9%,u,-11,2.3,0.6
O=C(O)c1ccc(NS(=O)(=O)c2ccc3c(c2)OCCCO3)cc1,13,7,1.7,-1.5,-1,16%,-5,-6,1.8,0.5
CCC1CN(C(=O)N2CCC(C(=O)NCc3ccc(F)cc3)CC2)c2ccccc2O1 (stereo unspecified),6,10,-1.6,0.6,-2,2%,u,-4,-3.0,0.4
Cc1ccc(-n2c(N)c(C(=O)NCc3cccnc3)sc2=S)cc1,x,x,x,x,x,-8%,4,-1,0.2,0.8
N#C/C(=C\c1ccccc1)C(=O)Nc1cc(S(=O)(=O)N2CCOCC2)ccc1N1CCCC1,9,6,2.6,8.6,1,2%,10,-2,-1.1,-0.5
CCn1c(/C=C/c2ccc([N+](=O)[O-])o2)nc2ccccc2c1=O,x,x,x,x,104*,25%,99*,86*,-11,1.3
CCOC(=O)C1CCC(CNCc2ccccc2C)CC1 (stereo unspecified),17,16,-1.4,-1.5,-5,12%,1,17,0.3,0.1
COc1ccc(C2(c3ccc(OC)cc3)NC(=O)N(Cn3nnc4ccccc4c3=O)C2=O)cc1,-17,-32,-2.0,1.1,2,-3%,-16,15,-3.2,0.7
CC(C)(C)OC(=O)N1CCC[C@H]1C(=O)N/N=C/c1cccc2nccnc12,12,7,-2.7,0.0,-6,-13%,3,-3,3.2,-0.5
CCC1(C)CC(c2csc(N)n2)CCO1 (stereo unspecified),x,x,x,x,-10,-4%,27,3,u,0.3
Fc1ccccc1Cc1noc(CN2CCCC(CN3CCOCC3)C2)n1 (stereo unspecified),14,9,1.7,-0.4,-2,10%,3,4,2.5,-0.7
C=CCNC(=O)c1cnc(-c2ccccc2)nc1-c1ccccc1,12,16,-6.7,-2.7,0,-4%,-1,8,-1.5,0.2
C#CCNC(=O)c1cccn1-c1ncc(C(F)(F)F)cc1Cl,8,2,1.3,-0.6,0,x,-11,-1,2.6,0.3
CC(=O)Nc1ccc(/C(C)=N/NC(=O)C2CC2c2ccccc2)cc1 (stereo unspecified),-2,0,-6.8,7.2,2,-11%,-17,-18,-2.9,1.5
COc1ccc(-c2cc(C(=O)N3CC4(C)CC3CC(C)(C)C4)no2)cc1OC (stereo unspecified),11,7,-0.4,5.5,-8,14%,16,18,-3.6,0.3
CCCc1n[nH]c(=S)n1Cc1ccco1,12,3,2.2,-11,-3,x,-2,-15,-5.8,1.4

# Not all compounds are listed; rates above refer to the full screens.
